Assay outcomes from PubChem.
Yeast UUG start – modulators of yeast start codon fidelity, primary screen, whole organism, S. cerevisiae, single point, plate reader; S. cerevisiae UUG-firefly luciferase reporter, luminescence/redox ratio; activity score, % at 18.7 µM; AID 602363, 2012; hit rate 0.13% among 350,000;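 active means replicate mean at a twofold rise or more, about +100% in these data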;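 further: firefly luciferase made from a UUG start codon reports start codon fidelity; reporter light over untreated wells divided by growth signal over untreated wells; some hits fall short of that in this replicate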
Env fusion inh – inhibitors of HIV-1 Env-driven cell-cell fusion, primary screen, HeLa-JRFL effector, CEM21 target cells, luciferase; hit rate 1.1% among 360,000; inhibition, % at 12.3 µM;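 active means mean replicate inhibition score of at least 50 and every replicate individually at or above 50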;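 further: 0% = plate neutral controls and 100% = maraviroc near 300 nM; one replicate is shown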
Numbers without * were called inactive; & = joins results of further samples; [ ] = remark or other dose.

SMILES	Yeast UUG start	Env fusion inh
C[C@@H]1CN([C@H](C)CO)C(=O)c2cccc(NC(=O)c3nc4ccccc4s3)c2O[C@@H]1CN(C)C(=O)Nc1ccc(F)cc1	-10.9	-72.0[16.7 µM]
COc1ccc(NC(=O)N[C@@H]2CC[C@H](CCn3cc(-c4ccccn4)nn3)O[C@@H]2CO)cc1	-22.2	31.6[16.7 µM]
Cc1noc(C)c1S(=O)(=O)N(C)C[C@H]1OCCCC[C@@H](C)Oc2ccc(NS(=O)(=O)c3cccs3)cc2C(=O)N([C@@H](C)CO)C[C@@H]1C	6.7	10.7[16.7 µM]
C[C@@H]1CN([C@H](C)CO)C(=O)c2cc(C3=CCCC3)cnc2O[C@H]1CN(C)C(=O)Cc1ccncc1	-0.2	16.5[16.7 µM]
Cc1ccccc1S(=O)(=O)NCC[C@H]1CC[C@@H](NC(=O)C2CC2)[C@H](CO)O1	-4.0	-7.0[16.7 µM]
COc1ccc(S(=O)(=O)Nc2ccc3c(c2)C(=O)N(C)C[C@@H](OC)[C@H](C)CN[C@@H](C)CO3)cc1	2.7	-10.7[16.7 µM]
COc1cccc(-c2ccc3c(c2)O[C@H](CN(C)Cc2ccncc2)[C@H](C)CN([C@H](C)CO)S3(=O)=O)c1	-3.9	8.3[16.7 µM]
CCC(=O)N1C[C@@H](C)[C@@H](OC)CN(C)C(=O)c2cc(NC(=O)Nc3cccc(F)c3)ccc2OC[C@@H]1C	12.8	-12.4[16.7 µM]
COCC(=O)N(C)C[C@@H]1Oc2ncc(-c3ccccc3OC)cc2C(=O)N([C@@H](C)CO)C[C@H]1C	15.3	-14.7[16.7 µM]
CS(=O)(=O)Nc1ccc2c(c1)[C@H]1C[C@@H](CC(=O)NCc3cccnc3)O[C@@H](CO)[C@H]1O2	-8.7	-13.6[16.7 µM]
Cc1noc(C)c1NC(=O)Nc1cccc2c1O[C@H](CN(C)Cc1ccc3c(c1)OCO3)[C@@H](C)CN([C@H](C)CO)C2=O	-0.8	-12.7[16.7 µM]
O=C(C[C@@H]1CC[C@@H](NC(=O)Nc2ccccc2)[C@H](CO)O1)NCc1cccc(F)c1	-12.4	2.7[16.7 µM]

8 of these compounds, set out differently.
Second line of a record: Yeast UUG start, Env fusion inh
C[C@@H]1CN([C@H](C)CO)C(=O)c2cccc(NC(=O)c3nc4ccccc4s3)c2O[C@@H]1CN(C)C(=O)Nc1ccc(F)cc1
    -10.9, -72.0[16.7 µM]
COc1ccc(NC(=O)N[C@@H]2CC[C@H](CCn3cc(-c4ccccn4)nn3)O[C@@H]2CO)cc1
    -22.2, 31.6[16.7 µM]
Cc1noc(C)c1S(=O)(=O)N(C)C[C@H]1OCCCC[C@@H](C)Oc2ccc(NS(=O)(=O)c3cccs3)cc2C(=O)N([C@@H](C)CO)C[C@@H]1C
    6.7, 10.7[16.7 µM]
C[C@@H]1CN([C@H](C)CO)C(=O)c2cc(C3=CCCC3)cnc2O[C@H]1CN(C)C(=O)Cc1ccncc1
    -0.2, 16.5[16.7 µM]
Cc1ccccc1S(=O)(=O)NCC[C@H]1CC[C@@H](NC(=O)C2CC2)[C@H](CO)O1
    -4.0, -7.0[16.7 µM]
COc1ccc(S(=O)(=O)Nc2ccc3c(c2)C(=O)N(C)C[C@@H](OC)[C@H](C)CN[C@@H](C)CO3)cc1
    2.7, -10.7[16.7 µM]
COc1cccc(-c2ccc3c(c2)O[C@H](CN(C)Cc2ccncc2)[C@H](C)CN([C@H](C)CO)S3(=O)=O)c1
    -3.9, 8.3[16.7 µM]
CCC(=O)N1C[C@@H](C)[C@@H](OC)CN(C)C(=O)c2cc(NC(=O)Nc3cccc(F)c3)ccc2OC[C@@H]1C
    12.8, -12.4[16.7 µM]

Further compounds
SMILES	Yeast UUG start	Env fusion inh
C[C@H]1CCCCO[C@H](CN(C)C)[C@@H](C)CN([C@@H](C)CO)C(=O)c2cc(NS(=O)(=O)c3cccs3)ccc2O1	7.0	-1.8[16.7 µM]
COc1ccc(NC(=O)Nc2ccc3c(c2)C(=O)N([C@H](C)CO)C[C@H](C)[C@H](CN(C)C(=O)Nc2ccccc2)O3)cc1	10.8	-2.5[16.7 µM]
CCCNC(=O)C[C@H]1C[C@H]2c3cc(NC(=O)C4CCOCC4)ccc3O[C@H]2[C@H](CO)O1	-13.5	-7.7[16.7 µM]
O=C(C[C@H]1CC[C@H]2[C@@H](COC[C@@H](O)CN2C(=O)Nc2cccc(Cl)c2)O1)NCCCN1CCOCC1	2.6	-2.5[16.7 µM]
COC(=O)C[C@@H]1CC[C@H]2[C@@H](COc3ccc(NC(=O)NC(C)C)cc3C(=O)N2C)O1	-5.5	7.2[16.7 µM]
C[C@@H]1CN([C@H](C)CO)C(=O)c2cccc(NC(=O)Nc3cccc4ccccc34)c2O[C@H]1CN(C)C(=O)Nc1cccc2ccccc12	-1.4	-25.6[16.7 µM]
C[C@@H](O)C#Cc1cnc2c(c1)C(=O)N([C@@H](C)CO)C[C@H](C)[C@@H](CN(C)Cc1cncnc1)O2	3.9	-12.6[16.7 µM]
Cc1noc(C)c1NC(=O)Nc1ccc2c(c1)C(=O)N([C@@H](C)CO)C[C@@H](C)[C@@H](CN(C)CC1CCCCC1)OCCCC[C@H](C)O2	17.6	1.9[16.7 µM]
O=C(Cc1cccnc1)N[C@@H]1CC[C@@H](CCn2cc(-c3ccccc3F)nn2)O[C@H]1CO	-2.2	15.7[16.7 µM]
C[C@H](CO)N1C[C@H](C)[C@H](CN(C)S(=O)(=O)c2cn(C)cn2)Oc2ncc(C#CCN(C)C)cc2C1=O	4.2&-3.7	8.6&-1.7[16.7 µM]
Cc1noc(C)c1NC(=O)N(C)C[C@H]1OCCCC[C@@H](C)Oc2ccc(NC(=O)Nc3ccccc3)cc2C(=O)N([C@H](C)CO)C[C@@H]1C	2.5	-26.9[16.7 µM]
COCc1cn(CC[C@H]2CC[C@@H](NC(=O)c3ccccc3)[C@H](CO)O2)nn1	-9.3	-9.7[16.7 µM]
Cc1noc(C)c1S(=O)(=O)Nc1cccc2c1O[C@H](CN(C)C(=O)NC(C)C)[C@H](C)CN([C@@H](C)CO)C2=O	11.9	-20.8[16.7 µM]
CNC[C@H]1Oc2c(cccc2N(C)C)C(=O)N([C@@H](C)CO)C[C@H]1C	-20.6	-9.6[16.7 µM]
C[C@@H]1CCCCO[C@@H](CN(C)C(=O)Nc2ccccc2)[C@H](C)CN([C@H](C)CO)C(=O)c2cc(NC(=O)Cc3ccccc3)ccc2O1	-7.7	-73.6[16.7 µM]
C[C@@H]1CN([C@H](C)CO)C(=O)Cc2cc(NS(=O)(=O)c3ccc(Cl)cc3)ccc2O[C@@H]1CN(C)S(=O)(=O)c1cn(C)cn1	7.5	-21.2[16.7 µM]
COc1ccc(-c2cn(CC[C@@H]3CC[C@@H](NC(=O)NC(C)C)[C@H](CO)O3)nn2)cc1	-2.7	-17.3[16.7 µM]
C[C@H](CO)N1C[C@H](C)[C@H](CN(C)S(=O)(=O)c2cn(C)cn2)Oc2ccc(N(C)C)cc2C1=O	1.5	6.6[16.7 µM]
COC(=O)c1ccc([C@H]2C=C(C(=O)O)O[C@@H](OCCCCO)C2)cc1	-22.5	-7.1[16.7 µM]
C[C@@H]1CN([C@@H](C)CO)C(=O)Cc2cc(NC(=O)c3ccncc3)ccc2O[C@H]1CN(C)C(=O)NC1CCCCC1	-14.4	1.5[16.7 µM]
C/C=C/c1ccc2c(c1)O[C@@H](CN(C)Cc1ccc(C(=O)O)cc1)[C@@H](C)CN([C@@H](C)CO)S2(=O)=O	12.7	-1.6[16.7 µM]
C[C@@H]1CN([C@H](C)CO)C(=O)c2cc(NS(=O)(=O)c3cccs3)ccc2O[C@@H](C)CCCCO[C@@H]1CN(C)C(=O)CCC(F)(F)F	14.5	-18.5[16.7 µM]
Cc1ccc(S(=O)(=O)Nc2cccc3c2O[C@H](CN(C)Cc2ccc4c(c2)OCO4)[C@@H](C)CN([C@H](C)CO)C3=O)cc1	3.7	-68.1[16.7 µM]
C[C@@H]1CCCCO[C@@H](CN(C)Cc2ccc(C(F)(F)F)cc2)[C@H](C)CN([C@@H](C)CO)C(=O)c2cc(NS(=O)(=O)c3ccc(Cl)cc3)ccc2O1	-5.5	2.7[16.7 µM]
C[C@@H]1CN([C@H](C)CO)C(=O)c2cc(-c3ccccc3F)cnc2O[C@@H]1CN(C)C(=O)NC1CCCC1	8.3	-28.9[16.7 µM]
C[C@H](CO)N1C[C@H](C)[C@@H](CN(C)S(=O)(=O)c2ccc(Cl)cc2)Oc2c(NC(=O)c3cnccn3)cccc2C1=O	8.6	16.5[16.7 µM]
C[C@@H]1CN([C@@H](C)CO)S(=O)(=O)c2ccc(Br)cc2O[C@@H]1CN(C)C(=O)c1cnccn1	-9.7	-3.9[16.7 µM]
CCCNC(=O)C[C@@H]1CC[C@@H]2[C@@H](COc3ccc(NS(=O)(=O)c4ccccc4C)cc3C(=O)N2C)O1	13.5	-3.7[16.7 µM]
C[C@H]1CN([C@@H](C)CO)C(=O)c2cc(-c3ccncc3)cnc2O[C@H]1CN(C)C(=O)C1CC1	-2.3	-6.3[16.7 µM]
C[C@@H]1CCCCO[C@@H](CN(C)C(=O)CCC(F)(F)F)[C@@H](C)CN([C@H](C)CO)C(=O)c2cc(NC(=O)NC3CCCCC3)ccc2O1	10.1	-24.0[16.7 µM]
C[C@H](CO)N1C[C@H](C)[C@H](CN(C)Cc2ccccn2)Oc2ncc(C3=CCCCC3)cc2C1=O	-0.5	-12.2[16.7 µM]
CO[C@H]1CN(C)C(=O)c2cc(NS(=O)(=O)c3ccccc3C)ccc2OC[C@H](C)N(C)C[C@H]1C	-14.6	0.5[16.7 µM]
C[C@@H]1CN([C@@H](C)CO)C(=O)c2cccc(NC(=O)Nc3ccccc3)c2O[C@H]1CN(C)Cc1ccc(-c2ccccc2)cc1	-2.0	-1.7[16.7 µM]
Cc1noc(C)c1S(=O)(=O)Nc1ccc2c(c1)C(=O)N([C@H](C)CO)C[C@H](C)[C@@H](CN(C)Cc1ccc(C(=O)O)cc1)OCCCC[C@@H](C)O2	1.1	-45.4[16.7 µM]
C[C@@H]1CN([C@H](C)CO)C(=O)c2cc(NC(=O)Cc3ccccc3)ccc2O[C@@H](C)CCCCO[C@H]1CN(C)Cc1ccc(C(=O)O)cc1	9.6	12.4[16.7 µM]
C[C@H](CO)N1C[C@H](C)[C@H](CN(C)Cc2ccc(C(F)(F)F)cc2)Oc2ccc(NS(=O)(=O)c3cccs3)cc2CC1=O	-0.6	3.0[16.7 µM]
COc1ccc(C#Cc2cnc3c(c2)C(=O)N([C@@H](C)CO)C[C@@H](C)[C@H](CN(C)C(=O)Nc2cccc(OC)c2)O3)cc1	-3.3	18.9[16.7 µM]
C[C@@H]1CCCCO[C@@H](CN(C)C)[C@H](C)CN([C@@H](C)CO)C(=O)c2cc(NC(=O)Nc3ccccc3)ccc2O1	6.6	5.2[16.7 µM]
COc1ccc(S(=O)(=O)Nc2ccc3c(c2)C(=O)N([C@H](C)CO)C[C@H](C)[C@@H](CN(C)Cc2ccc(C(F)(F)F)cc2)OCCCC[C@H](C)O3)cc1	9.8	-3.1[16.7 µM]
CCCNC(=O)Nc1ccc2c(c1)OC[C@@H](C)N(CC1CCCC1)C[C@@H](C)[C@H](OC)CN(C)C2=O	15.8	-11.3[16.7 µM]
CN1CCN(C(=O)C[C@@H]2C[C@@H]3c4cc(NC(=O)Nc5ccccc5)ccc4O[C@@H]3[C@@H](CO)O2)CC1	2.1	1.5[16.7 µM]
C[C@H]1CN([C@@H](C)CO)C(=O)c2cccc(NS(=O)(=O)c3ccc(Cl)cc3)c2O[C@H]1CN(C)S(=O)(=O)c1ccccc1	-5.9	-19.6[16.7 µM]
CN(C)S(=O)(=O)n1cc(/C=C(\NC(=O)c2ccccc2F)C(=O)N2CCCCC2)c2ccccc21	4.4	17.1
COc1cccc(S(=O)(=O)N[C@H]2CC[C@H](CCNC(=O)Nc3cc(F)ccc3F)O[C@@H]2CO)c1	6.6	-18.0[16.7 µM]
C[C@H](CO)N1C[C@H](C)[C@H](CN(C)Cc2ccc(C(=O)O)cc2)OCCCC[C@H](C)Oc2ccc(NS(=O)(=O)c3cccs3)cc2C1=O	13.8	-18.6[16.7 µM]
C[C@H]1CN([C@@H](C)CO)C(=O)Cc2cc(NC(=O)Nc3cccc4ccccc34)ccc2O[C@@H]1CN(C)Cc1ccc(-c2ccccc2)cc1	2.8	-11.4[16.7 µM]
C[C@@H]1CN([C@@H](C)CO)C(=O)c2cc(NS(=O)(=O)c3ccccc3)ccc2O[C@@H](C)CCCCO[C@@H]1CN(C)C(=O)C1CCCCC1	-27.4	-9.5[16.7 µM]
COc1ccc(NC(=O)Nc2ccc3c(c2)CC(=O)N([C@H](C)CO)C[C@@H](C)[C@@H](CN(C)Cc2ccc4c(c2)OCO4)O3)cc1	8.7	13.6[16.7 µM]
C[C@H](CO)N1C[C@H](C)[C@H](CN(C)C(=O)c2ccccn2)Oc2cc(C#CCC3CCCC3)ccc2S1(=O)=O	-1.7	19.8[16.7 µM]
C[C@H](CO)N1C[C@H](C)[C@H](CN(C)Cc2ccc(C(F)(F)F)cc2)OCCCC[C@H](C)Oc2ccc(NS(C)(=O)=O)cc2C1=O	13.1	38.6[16.7 µM]
CCC(=O)N1C[C@@H](C)[C@@H](OC)CN(C)C(=O)c2ccc(NC(=O)C3CCCCC3)cc2OC[C@H]1C	9.9	-1.5[16.7 µM]
O=C(Nc1ccc(F)cc1)N[C@H]1CC[C@@H](CCNS(=O)(=O)c2cccc(Cl)c2)O[C@@H]1CO	-4.9	-12.5[16.7 µM]
COCCNC(=O)C[C@H]1C[C@H]2c3cc(NC(=O)c4cccnc4)ccc3O[C@H]2[C@H](CO)O1	-9.8	-1.6[16.7 µM]
COc1cccc(S(=O)(=O)N[C@H]2C=C[C@H](CC(=O)NCc3ccc(Cl)cc3)O[C@@H]2CO)c1	-2.6	-0.4[16.7 µM]

Some of the compounds tested. The share of hits here may be higher or lower than overall.
